# Cruzain inh noDet: cruzain (T. cruzi) inhibition without detergent; 200,000 tested, 2.3% active; purified cruzain, Z-FR-AMC fluorescence, no detergent; Potency, µM, inactives show max response, negative = inhibition, most hits filed as inhibitors; active = well fitted curve in the direction sought with a large enough effect; inconclusive = small, poorly fitted or top-dose-only effect, or another doubt; inactive = no such curve, though single readings can be large; an effect the other way counts as inactive or inconclusive;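 also: plate controls were enzyme without inhibitor for no effect and buffer without enzyme for full effect; nearly all actives have a fitted effect of over 40% in size; top concentration of the series not given in the record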
# Target sequence (P25779 123-467 limits assumed): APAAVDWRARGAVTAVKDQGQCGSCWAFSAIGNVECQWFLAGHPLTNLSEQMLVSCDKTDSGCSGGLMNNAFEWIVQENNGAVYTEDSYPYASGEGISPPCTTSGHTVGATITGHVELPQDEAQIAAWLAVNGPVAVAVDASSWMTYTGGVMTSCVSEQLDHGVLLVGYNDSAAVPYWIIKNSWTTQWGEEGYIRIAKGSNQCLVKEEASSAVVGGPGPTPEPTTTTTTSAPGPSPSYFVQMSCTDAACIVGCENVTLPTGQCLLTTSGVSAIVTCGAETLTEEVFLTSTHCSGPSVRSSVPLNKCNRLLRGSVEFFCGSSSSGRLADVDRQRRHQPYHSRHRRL
#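 Purified cruzain at 1.5 nM, pre-incubated 15 min with compound at room temperature in 100 mM sodium acetate pH 5.5, 5 mM DTT, 0.00005% Triton X-100. Reaction started with 2 uM Z-FR-AMC; AMC fluorescence increase over 60 s gives rate.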
# StopGo reporter: FMDV 2A StopGo reporter, luciferase signal | human cells with a luciferase reporter of 2A StopGo recoding; control for the full effect not named in the record | Potency, µM (doses to about 57.9 µM), for inactives: at the top dose signal change, negative = less light | 410,000 tested, 1.2% active | AID 1159524; active = well fitted falling curve with a large enough effect; inconclusive = small, poorly fitted or top-dose-only effect; inactive = no such curve, though single readings can be large or run the other way; tested in HEK293T cells; also: % is scaled to controls: 0 for no effect and ±100 for the full control effect; nearly all actives have a fitted effect of over 45% in size; luciferase light after 4 h
# NS1 function inh: blocks influenza NS1 protein function; Potency, µM (series often up to 46.1 µM), for inactives: at the highest dose activity, positive = more growth; 270,000 tested, 0.4% active; S. cerevisiae slowed by influenza A NS1, growth recovery by OD600; also: actives are rising curves; nearly all actives have a fitted effect of over 50% in size
#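 Growth recovery, yeast-based: influenza A NS1 expressed in S. cerevisiae causes slow growth, and suppressors are detected by OD600. The parent strain without NS1 is used as positive control.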
# Lassa entry inh: inhibitors of Lassa virus binding or cell entry; 300,000 tested, 1.2% active; Potency, µM (series often up to 37.9 µM), inactives show at the top dose activity change, negative = inhibition, hits mostly inhibitors; Lassa virus pseudotype entry inhibition, cell reporter; control for the full effect not named in the record; active means well fitted inhibition curve with a large enough effect; inconclusive means small, poorly fitted or top-dose-only effect, or effect the other way; inactive means flat fitted curve, though single readings scatter; tested in HEK293 cells; also: % is scaled to controls: 0 for no effect and ±100 for the full control effect; nearly all actives have a fitted effect of over 50% in size; luciferase read-out
# SARS PLP yeast: SARS-CoV PLP inhibition in yeast | S. cerevisiae expressing SARS-CoV PLpro, growth rescue; control for the full effect not named in the record | 330,000 tested, 0.19% active | AID 485353 | Potency, µM (titrated, usually from 32.9 µM), for inactives: at the highest dose activity, positive = growth rescue; also: 0% is about no effect; nearly all actives have a fitted effect of over 55% in size; growth read by luminescence after 48 h
# MARV entry inh: inhibitors of Marburg virus binding or cell entry. Marburg virus pseudotyped entry inhibition, cell reporter; control for the full effect not named in the record; about a third of the inactives were read at about 46 µM. AID 540276. 300,000 tested, 1.8% active. Potency, µM (series often up to 37.8 µM), without a hit: top-dose activity change, negative = inhibition, actives largely listed as inhibitors; active = well fitted inhibition curve with a large enough effect; inconclusive = small, poorly fitted or top-dose-only effect, or effect the other way; inactive = flat fitted curve, though single readings scatter; tested in HEK293 cells; about a fifth of its hits are not listed in these tables; also: % is scaled to controls: 0 for no effect and ±100 for the full control effect; luciferase read-out
# Cruzain Triton: blocks cruzain activity in presence of Triton detergent | 200,000 tested, 0.43% active | AID 1478 | purified cruzain, Z-FR-AMC fluorescence, 0.01% Triton | Potency, µM, for the others: max response, negative = inhibition, hits mostly inhibitors; active = well fitted curve in the direction sought with a large enough effect; inconclusive = small, poorly fitted or top-dose-only effect, or another doubt; inactive = no such curve, though single readings can be large; an effect the other way counts as inactive or inconclusive;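 also: plate controls were neutral wells for no effect and buffer without enzyme for full effect; nearly all actives have a fitted effect of over 40% in size; top concentration of the series not given in the record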
#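 Z-FR-AMC hydrolysis (2 uM substrate) by cruzain (1.5 nM) monitored kinetically at ex 360/em 450 nm after 15 min room-temperature compound exposure; 0.01% Triton X-100, pH 5.5, 5 mM DTT.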
# RE007 growth inh: less growth of the S. pombe RE007 Vpr strain; Potency, µM (series often up to 92.2 µM), inactives show at the top dose activity change, negative = less growth; 360,000 tested, 0.21% active; S. pombe RE007 Vpr strain, BacTiter-Glo ATP luminescence, 24 h; control for the full effect not named in the record; AID 651644; active = well fitted falling curve with a large enough effect; inconclusive = small, poorly fitted or top-dose-only effect; inactive = no such curve, though single readings can be large or run the other way;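 also: % is scaled to controls: 0 for no effect and ±100 for the full control effect; nearly all actives have a fitted effect of over 50% in size; the assay follows cell death caused by Vpr and the record does not say whether a fall means rescue or toxicity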
#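 Fission yeast RE007 carrying one integrated HIV-1 vpr copy, seeded at OD 0.01 in PMG+AL medium with 23 nL pinned compound. Grown 24 h at 30 degrees; viability read by BacTiter-Glo luminescence after 5 min.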
# The depositor's hits bear a star; u = inconclusive; x = no result given; & = joins results of further samples; [ ] = remark or other dose. Unless noted, calls follow the shape of the dose curve; as a rule, active means well fitted rising curve with a large enough effect; inconclusive means small, poorly fitted or top-dose-only effect; inactive means no such curve, though single readings can be large or run the other way. Potency is read from the fitted curve at half-maximal effect.
SMILES,Cruzain inh noDet,StopGo reporter,NS1 function inh,Lassa entry inh,SARS PLP yeast,MARV entry inh,Cruzain Triton,RE007 growth inh
O=C(Cc1ccon1)c1ccc(O)cc1O,x,16%,u,x,0%,x,x,-2%
O=C(NCCN1CCCC1)C1CCN(S(=O)(=O)N2CCC3(CC2)OCCO3)CC1,3%,x,-7%,4%,9%,17%,4.2%,0%
O=C(CN1CCCC1)N1CCCc2c1c(=O)oc1ccc(OCc3ccccc3)cc21,3%,-25%,u,-18%,2%,u,-2.6%,2%
Cc1cccc(C(=O)O/N=C(\N)c2ccc(Br)cc2)c1,3%,25%,-41%,-15%,-22%,12%,0.2%,-12%
COc1ccc(-c2cc(C(F)F)n3ncc(C(=O)N4CCCCC4)c3n2)cc1,8%,-6%,-12%,-20%,8%,u,-2.5%,10%
O=C(CCNC(=O)c1ccc(Br)cc1)NCCCSc1ccccc1,x,-6%,x,10%,-7%,-10%,x,12%
Cc1ccccc1C(=O)Nc1nnc(-c2ccc(F)cc2)o1,-8%,23%,-155%,x,15%,0%,1.9%,5%
COc1cc(NC(=O)COC(=O)c2ccc(C)c(S(=O)(=O)N3CCCCC3)c2)c(C)cc1[N+](=O)[O-],u,-3%,u,-1%,3%,1%,-4.3%,-26%
Cc1ccc2oc(=O)cc(CN3CCN(Cc4ccccc4)CC3)c2c1,x,u,0%,x,-2%,x,x,-8%
C/C=C(\C)C(=O)NCCN1C2=NC[C@H](C(C)C)N2C[C@H]1Cc1ccc(O)cc1,x,-10%,1%,x,1%,x,x,-10%
Cc1nnc(NC(=O)CCC(=O)NCc2cccs2)s1,5%,2%,12%,-6%,10%,17%,3.9%,8%
O=C(CSc1nnc(-c2ccco2)n1Cc1ccccc1)OC1CCCCC1,-5%,-19%,-61%,0%,-6%,u,-5.1%,20%
COc1ccc(CCCc2nnc(SCc3nc4ccccc4c(=O)[nH]3)n2C)cc1C,x,-13%,x,-4%,0%,u,x,-14%
CCn1c(=O)n(CC)c2cc(S(=O)(=O)N3CCc4ccccc43)ccc21,u,x,u,-20%,-1%,u,-3.6%,9%
CC(=O)Nc1cc2cc(NS(=O)(=O)c3ccc(Cl)cc3)ccc2oc1=O,x,17%,3%,-27%[46.1 µM],2%,u,x,-7%
COC(=O)Cc1ccc(NC(=S)NCCCN2CCOCC2)cc1,x,2%,5%,-2%,0%,26%[46.1 µM],x,5%
COc1nc(N/N=C/c2cc3c(cc2Br)OCO3)nc(N2CCOCC2)n1,3%,-13%,-11%,-12%,0%,u,-17%,-4%
CC(C)NC(=O)CSc1nc2ccccc2n1-c1ccccc1,-6%,-29%,-37%,-1%,-9%,u,-4.5%,9%
Cc1c(C(=O)NC2CCCc3ccccc32)oc2ccc(S(=O)(=O)N3CCCCC3)cc12 (stereo not given),u,8%,11%,-5%&2%,-7%,-2%&11%,-1.5%,5%
CC(C)(C)NC(=O)c1ccccc1NC(=O)c1ccc2c(c1)OCO2,x,-14%,-3%,-2%[46.1 µM],0%,-3%[46.1 µM],x,-15%
Cc1ccc(C(=O)COC(=O)CNC(=O)COc2ccccc2C)cc1C,u,4%,-43%,-15%,2%,7%&7%,16µM*,-17%
CCCCCCCCN1C(=O)N(C)C(N(O)C(=O)NC)C1(C)C (stereo not given),u,-28%,4%,-19%,5%,12%,0.9%,5%
CCN(CC)CCCNc1oc(/C=C/c2ccc(OC)c(OC)c2)nc1C#N,u,0%,x,16%[46.1 µM],x,-16%[46.1 µM],-13%,x
CCCCCCCCC1=NCCc2c1[nH]c1ccccc21,x,-23%,-8%,u,0%,u,x,-21%
COc1ccc(C2=NN(C(=O)c3ccccc3)C(c3ccc(OC)c(OC)c3)C2)cc1OC (stereo not given),x,-1%,-1%,x,0%,x,x,6%
CSc1nc(-c2ccccc2)nc(N2CCN(C)CC2)c1C(C)=O,7%,0%,-42%,15%,-13%,-12%,1.0%,-5%
COC(=O)Cn1c2ccc(C)cc2c2nc(C)sc21,8%,-8%,-10%,20%,-7%,8%,1.4%,-8%
C=CCSc1nc2c(cnn2-c2ccccc2)c(=O)n1N,x,51%[activator],-40%,u,-3%,u,x,29%
CCOC(=O)c1ccccc1NC(=O)CSc1nnc(CC)n2c1cc1occc12,-9%,-16%,x,19%[46.1 µM],x,x,-2.4%,x
Cc1ccccc1C1CC(=O)c2ccccc2C1C (stereo not given),x,-26%,x,-6%[46.1 µM],x,u,x,-1%
O=C(Cn1c(=O)oc2ccccc21)NCC1COc2ccccc2O1 (stereo not given),x,-9%,-1%,-3%[46.1 µM],8%,2%[46.1 µM],x,-22%
COc1cc(=O)n2c(n1)SCCC2,-4%,-13%,-10%,15%,0%,12%,0.8%,13%
O=C(O)CN(CCO)CCN(CC(=O)O)CC(=O)O,15%,x,4%,4%,-5%,3%&3%&3%,15%,x
Cc1cc(C)nc(SCCCNCc2c(F)cccc2Cl)n1,x,-4%,-4%,x,u,x,x,-14%
CCOc1ccc(NS(=O)(=O)c2ccc(NS(C)(=O)=O)cc2)cc1,-1%,-12%,-3%,u,4%,u,-1.5%,34%
CCCN1C(=O)/C(=C\C=C2\N(CC)c3ccccc3C2(C)C)SC1=S,x,-30%,-2%,-26%[46.1 µM],0%,17%[46.1 µM],x,-5%
CCN(CC)C(=O)Cn1cc(S(=O)(=O)CC(=O)NCCc2ccc(OC)c(OC)c2)c2ccccc21,x,-5%,x,4%[46.1 µM],3%,0%[46.1 µM],x,-3%
NS(=O)(=O)c1cccc(NC(=O)CCN2C(=O)C3CCCCC3C2=O)c1 (stereo not given),x,-1%,x,9%,-5%,-30%,x,20%
CC(=O)C1=C(C)Nc2ncnn2C1c1ccc(O)cc1 (stereo not given),x,-14%,6%,x,2%,x,x,11%
CCOC(=O)C1CCCN(S(=O)(=O)c2ccc3c(c2)NC(=O)CO3)C1 (stereo not given),x,30%,0%,-7%[46.1 µM],3%,-4%[46.1 µM],x,-11%
CC(=O)Oc1c(C)c(=O)n(C)c2ccccc12,-5%,-10%,12%,-16%,-1%,30%,-2.6%,6%
O=S1(=O)N=C(N/N=C/C=C/c2ccccc2)c2ccccc21,-6%,-18%,12%,u,-14%,7%,3.9%,-9%
C=CCc1c(C)nc(C)nc1N/N=C/c1ccccc1O,0%,11%,-7%,u,-2%,u,-2.6%,9%
C=CCNC(=S)NNC(=O)c1ccc(OC(C)C)cc1,6%,-19%,-14%,-2%,10%,1%,1.5%,15%[3.69 µM]
Cc1cccc(NC(=O)CCC(=O)c2cccs2)n1,x,47%[activator],x,8%,5%,u,x,-16%

# Taken from above:
# Result for Cc1cccc(C(=O)O/N=C(\N)c2ccc(Br)cc2)c1 in Lassa entry inh: -15%
# Result for COc1ccc(C2=NN(C(=O)c3ccccc3)C(c3ccc(OC)c(OC)c3)C2)cc1OC (stereo not given) in NS1 function inh: -1%
# Result for CCCCCCCCC1=NCCc2c1[nH]c1ccccc21 in NS1 function inh: -8%
# Result for CCn1c(=O)n(CC)c2cc(S(=O)(=O)N3CCc4ccccc43)ccc21 in RE007 growth inh: 9%
# Result for CCOC(=O)c1ccccc1NC(=O)CSc1nnc(CC)n2c1cc1occc12 in Cruzain Triton: -2.4%
# Result for CSc1nc(-c2ccccc2)nc(N2CCN(C)CC2)c1C(C)=O in NS1 function inh: -42%
# Result for COC(=O)Cc1ccc(NC(=S)NCCCN2CCOCC2)cc1 in StopGo reporter: 2%

# Already shown: entries from further up.
SMILES,Cruzain inh noDet,StopGo reporter,NS1 function inh,Lassa entry inh,SARS PLP yeast,MARV entry inh,Cruzain Triton,RE007 growth inh
COc1cc(=O)n2c(n1)SCCC2,-4%,-13%,-10%,15%,0%,12%,0.8%,13%
O=C(O)CN(CCO)CCN(CC(=O)O)CC(=O)O,15%,x,4%,4%,-5%,3%&3%&3%,15%,x

# Additional entries:
SMILES,Cruzain inh noDet,StopGo reporter,NS1 function inh,Lassa entry inh,SARS PLP yeast,MARV entry inh,Cruzain Triton,RE007 growth inh
O=[N+]([O-])c1ccc2nc(C(O)C(O)c3nc4ccc([N+](=O)[O-])cc4[nH]3)[nH]c2c1 (stereo not given),x,5%,8%,u,3%,-14%,x,5%
COc1ccc(CCC(=O)N(C)CC(=O)Nc2ccc(N3CCOCC3)cc2)cc1,x,-11%,x,-5%,-3%,3%[46.1 µM],x,0%
O=C(Nc1nnc(C2CCCCC2)s1)c1cccs1,-15%,28%,-15%,u,-8%,u,2.8%,0%
C=C(C)CNC(=S)Nc1cccc(S(=O)(=O)NC2=NCCC2)c1,x,36%[activator],2%,20%[46.1 µM],0%,11%[46.1 µM],x,-2%
COc1cc(C(=O)NNC(=O)c2ccc(NC(C)=O)cc2)cc(OC)c1OC,x,21%,x,10%,1%,1%[46.1 µM],x,-13%
Cc1cccc(-c2nnc(SCC#N)n2-c2ccccc2)c1,13%,u,8%,-11%,-2%,-1%,0.8%,-8%
CC(C)=C1SC(N2CCN(c3cccc(C(F)(F)F)c3)CC2)=NC1=O,-2%,-18%,-1%,-17%,1%,-17%,-1.7%,3%
CC(C)Sc1ncnc2c1cnn2-c1ccccc1,x,-20%,-27%,u,6%,u,x,-9%
CC(=O)Nc1cccc2c1Cc1cc([N+](=O)[O-])ccc1-2,x,-5%,x,5%[46.1 µM],x,16%,x,-28%
COc1cccc(NC(=O)C2CCCN(c3ncnc4onc(C)c34)C2)c1 (stereo not given),-2%,u,x,u,x,x,-1.9%,x
CCOc1ccccc1C(=O)Nc1cccc2ccc(C)nc12,0%,0%,x,0%[46.1 µM],x,17%[46.1 µM],-9.6%,x
CCOc1ccc2nc(SCC(=O)Nc3ccc4c(c3)OCO4)sc2c1,u,-28%,2%,6%,13%,u,-3.3%,12%
CC1Cc2cc(-c3csc(N)n3)ccc2O1 (stereo not given),x,23%,-111%,u,-8%,u,x,-4%
Cc1ccc(OCC(COCc2ccccc2)NC(C)C)cc1 (stereo not given),x,-7%,x,-23%,x,u,x,-2%
